Vaccinia Venus: inhibitors of vaccinia virus (Venus reporter) | Vaccinia virus Venus reporter expression, fluorescence | Potency, µM (highest dose often 36.5 µM), for inactives: top-dose activity change, negative = inhibition, usual class: inhibitors | 0.46% of 330,000 active | AID 720580; active means well fitted inhibition curve with a large enough effect; inconclusive means small, poorly fitted or top-dose-only effect; inactive means no such curve, though single readings can be large or run the other way; tested in A549 cells; further: nearly all actives have a fitted effect of over 30% in size; inactives centre near -10
Vaccinia mCherry: inhibitors of vaccinia virus infection (mCherry reporter signal). Potency, µM (series often up to 36.5 µM), without a hit: at the top dose activity change, negative = inhibition, actives largely listed as inhibitors. 0.63% of 310,000 active. Vaccinia virus mCherry reporter infection, fluorescence; about a quarter of the inactives have no number; active = well fitted inhibition curve with a large enough effect; inconclusive = small, poorly fitted or top-dose-only effect; inactive = no such curve, though single readings can be large or run the other way; tested in A549 cells; further: nearly all actives have a fitted effect of over 35% in size; inactives centre near -10
Numbers without * were called inactive; i = inactive; ? = inconclusive; / = not tested or not shown; & = joins results of further samples; [ ] = remark or other dose. On the % scale 0 is the no-effect control and ±100 the full control effect; potency means the concentration at half of the fitted maximal effect. Hits appear at their usual frequency; 0.86% or so of the library scored in one or more.

mol	Vaccinia Venus	Vaccinia mCherry
CCOc1ccc(OCC)c(NS(=O)(=O)c2ccc3c(c2)CCN3C(=O)C2CCC2)c1	-5%&-11%	-6%
CCC(C)(C)NC(=O)C(c1ccc(F)cc1)N(Cc1ccc(OC)cc1)C(=O)c1cnccn1 (configuration not stated)	0%	-12%
O=C(c1ccc(Cl)c(S(=O)(=O)N2CCOCC2)c1)N(c1ccccn1)C1CCCCC1	-7%	-1%
N#Cc1c(Nc2ccccc2C(F)(F)F)s[nH]c1=O	-5%	-15%
Cc1ccc(C)c(-c2ccc(=O)n(Cc3ccc(F)cc3Cl)n2)c1	-16%&-20%	-4%&-16%
Cc1ccc(C(C)C)c(OCC(O)CN2CCc3ccccc3C2)c1 (configuration not stated)	?	10µM*
Cc1cc(=O)n(C(C)Cc2ccccc2)n1C(C)Cc1ccccc1 (configuration not stated)	-6%	i
CCOC(=O)N1CCC(N2C(=O)c3ccc(C(=O)Nc4ccc(OC)cc4)cc3C2=O)CC1	-5%	-15%
COC(=O)C1=C(C)NC2=C(C(=O)CC(c3cccs3)C2)C1c1ccsc1 (configuration not stated)	-25%	i
CCN(CC(=O)Nc1ccc(C#N)cc1)CC(=O)Nc1ccc2c(c1)OCCO2	-9%	-4%
O=C1NC2C(NC(=O)N2C2CCCCC2)N1C1CCCCC1 (configuration not stated)	-7%	-8%[1.46 µM]
CCOc1ccccc1N1CCN(C(=O)c2c(Cl)cnn2C)CC1	-3%	-10%
CCN(CC(=O)Nc1ccc(OC)cc1)CC(=O)Nc1ccc(Br)cc1F	-14%	i
CCC(C)N(C(=O)COC(=O)c1nc(Cl)ccc1Cl)C1CCS(=O)(=O)C1 (configuration not stated)	-16%	i
O=C(Nc1ccccc1)c1ccc2c(c1)OCCO2	-17%	i
COc1ccc(-c2csc(NC(=O)CSc3n[nH]c(C)n3)n2)cc1	?	?
COc1cccc(C(=O)N(Cc2ccco2)c2ccccn2)c1	-9%	-17%
Cc1sc(N)c(C(=O)c2ccccc2)c1C	-13%	i
O=C1CC(N2CCSCC2)C(=O)N1c1ccccc1 (configuration not stated)	10%	2%
CN(C)S(=O)(=O)c1ccc(C(=O)NCC(=O)N/N=C/c2ccccc2Cl)cc1	-10%	-11%
C=CCOc1ccc(-c2nc3c(c(=O)[nH]c(=O)n3CCCC)n2C)cc1Br	-5%	i
CC(=O)OC1CCC(OC(C)=O)c2c1n([O-])c(C)c(C)[n+]2=O (configuration not stated)	-6%	-8%
CC1=C(C(=O)Nc2ccccc2)C(c2ccc(F)cc2)n2nc(SCc3cc(C)ccc3C)nc2N1 (configuration not stated)	-3%	-6%
COc1ccc(CNC(=O)c2ccc3nc(-c4ccc(F)cc4)c(-c4ccc(F)cc4)nc3c2)cc1	-7%	-3%

The last four records of the section above are carried over, then new ones follow:
mol	Vaccinia Venus	Vaccinia mCherry
C=CCOc1ccc(-c2nc3c(c(=O)[nH]c(=O)n3CCCC)n2C)cc1Br	-5%	i
CC(=O)OC1CCC(OC(C)=O)c2c1n([O-])c(C)c(C)[n+]2=O (configuration not stated)	-6%	-8%
CC1=C(C(=O)Nc2ccccc2)C(c2ccc(F)cc2)n2nc(SCc3cc(C)ccc3C)nc2N1 (configuration not stated)	-3%	-6%
COc1ccc(CNC(=O)c2ccc3nc(-c4ccc(F)cc4)c(-c4ccc(F)cc4)nc3c2)cc1	-7%	-3%
C[C@@H](C(=O)N[C@@H](Cc1c[nH]c2ccccc12)C(=O)O)n1nnc2ccccc2c1=O	-2%[7.34 µM]	-12%[7.34 µM]
CCc1cccc(C)c1NC(=S)NCc1cccn1C	-6%	-21%
CC(C#N)(Nc1ccc(Cl)cc1)c1cccnc1 (configuration not stated)	-20%	i
CCOc1ccc(CCNC(=O)c2cc(C)nc3ccccc23)cc1OCC	-10%	-4%
COc1ncnc2c1ncn2CCCNCc1ccco1	0%	i
O=[N+]([O-])c1cccc(NC2=NCCC2)c1	-8%	?
Cc1ncc(CN2CCN(Cc3ccc(F)cc3)C(CCO)C2)s1 (configuration not stated)	-2%	1%
CC(=O)NCc1ccc(-c2csc(-c3cccs3)n2)cc1	-26%	-9%
CCN1C(=S)SC(=O)C1=C1C=C(C)OC(C)=C1	-14%	/
COc1cc(NC(=O)CC2C(=O)N(c3cccc(C)c3)C(=O)N2Cc2ccc(F)cc2)cc(OC)c1 (configuration not stated)	-14%	-11%
NC(=O)CN1CCN(C2CC(=O)N(CCc3ccccc3)C2=O)CC1 (configuration not stated)	-20%	i
Cc1csc(SCCn2c(Br)nc3c2c(=O)[nH]c(=O)n3C)n1	-6%	-17%
COCCN1CC(C(=O)NCCc2nc(C)c(C)s2)CCC1=O (configuration not stated)	-11%	-11%
CCN1CCN(C(=O)c2cc3c(s2)-c2ccccc2S(=O)(=O)C3)CC1	-8%	i
O=C(CN1C(=O)c2ccccc2S1(=O)=O)c1ccc2c(c1)OCCCO2	-7%[7.34 µM]	-3%[7.34 µM]
Cc1ccc(S(=O)(=O)C=CS(=O)(=O)c2ccc(C)cc2)cc1	-21%	?
O=C(Cc1ccsc1-c1ccccc1)NO	-24%	/
COCCn1c(C)cc(O)c(C(c2ccc(Cl)cc2)N2CCN(c3ccccc3)CC2)c1=O (configuration not stated)	-15%	-6%
Cn1c(/C(C#N)=C/c2ccccc2Br)nc2ccccc21	-30%	-28%
COc1cccc(NC(=O)CSc2nc(-c3ccccc3Cl)nc3c2Cc2c(CO)cnc(C)c2O3)c1	-20%	-11%
COc1ccc(S(=O)(=O)N(CCCN2CCCC2=O)Cc2cc3c(C)cc(C)cc3[nH]c2=O)cc1	-17%	i
C/C(=N\Nc1nccnc1Cl)c1ccc(O)c(C)c1	-21%	?
O=S(=O)(c1ccc(-c2csc(=Nc3ccccc3)n2CCCN2CCOCC2)cc1)N1CCOCC1	-37%	/
CCCCNS(=O)(=O)c1ccc2nc(SCC(=O)N3CC(C)OC(C)C3)[nH]c2c1 (configuration not stated)	-15%	-15%[1.46 µM]

Full records as entered above.
CCCCNS(=O)(=O)c1ccc2nc(SCC(=O)N3CC(C)OC(C)C3)[nH]c2c1 (configuration not stated) in the list: Vaccinia Venus = -15%; Vaccinia mCherry = -15%[1.46 µM]
COc1ccc(S(=O)(=O)N(CCCN2CCCC2=O)Cc2cc3c(C)cc(C)cc3[nH]c2=O)cc1 in the list: Vaccinia Venus = -17%; Vaccinia mCherry = i
COCCn1c(C)cc(O)c(C(c2ccc(Cl)cc2)N2CCN(c3ccccc3)CC2)c1=O (configuration not stated) in the list: Vaccinia Venus = -15%; Vaccinia mCherry = -6%

Further entries
mol	Vaccinia Venus	Vaccinia mCherry
O=C(COc1cc2oc(=O)cc(-c3ccccc3)c2cc1Cl)NC(Cc1c[nH]c2ccc(O)cc12)C(=O)O (configuration not stated)	4%	-3%
Cc1cccc(N2CCN(S(=O)(=O)c3ccc(-c4cc(C(F)(F)F)on4)s3)CC2)c1C	-9%	i
Cc1cccc(CCN2C(Nc3ccccc3)=NC[C@@H]2CC(C)C)c1	-28%	-15%
O=[N+]([O-])c1cccnc1Oc1ccc(F)cc1	6%	-15%
COc1ccc(NC(=O)c2oc3ccc(S(=O)(=O)N(C)C4CCCCC4)cc3c2C)cc1	?	?
CC1=CCC(C(=O)O)C(C(=O)NC2CCCCC2)C1 (configuration not stated)	-16%	i
Cn1c([N+](=O)[O-])cnc1N1CCN(c2nncs2)C1=O	0%	i
CC1C[C@@]2(NC(=O)NC2=O)C(C)CN1C (some centres not stated)	0%	/
COc1cc(OC)c(NC(=O)c2cc3c(s2)-c2ccc(Cl)cc2SC3)cc1Cl	-4%	32%[activator]
O=[N+]([O-])c1ccc(-c2ccc(/C=N/O)o2)cc1	?	-21%
CC(C)C(=O)N1CCC2(CC1)Oc1ccc(Cl)cc1C(=O)C21CC(c2ccc(Cl)cc2)=NO1 (configuration not stated)	-25%	i
O=C(CCCN1C(=O)c2cccc3cccc(c23)C1=O)N1CCN(Cc2ccc3c(c2)OCO3)CC1	-20%	i
COc1ccc(OC)c(NC(=O)CSc2nnc(CNC(=O)c3cc(OC)c(OC)c(OC)c3)o2)c1	-10%	i
COc1ccc([C@H]2N[C@]3(CCCN(Cc4cccn4C)C3=O)[C@H]3C(=O)N(Cc4ccccc4)C(=O)[C@@H]23)cc1	-23%	-9%
Cc1ccc(N2CCN(C(=O)c3ccccc3NC(=O)c3ccccc3C(=O)O)CC2)cc1	-4%	-11%
Cc1cccc(-n2c(Cc3cc(=O)[nH]c(=O)[nH]3)nnc2SCC(=O)N2CCCCC2)c1	-2%	-8%
CC(=C/c1ccco1)/C=N/NC(=O)Cc1cccn1C	-4%	-13%
Cc1ccc([C@H]2C(C(=O)O)=CC[C@@H](c3ccc(Cl)c(Cl)c3)N2S(=O)(=O)c2ccc(C)cc2)cc1	-30%	?
C[C@@H]1O[C@H](C[N+](C)(C)C)C[C@@H]1O	-14%	-1%
Cc1cccc(N2CCN(C(=O)c3cccc(-n4c(C)nc5cccnc54)c3)CC2C)c1 (configuration not stated)	-21%	-23%
COc1ccc(N(CC(=O)NCc2ccco2)C(=O)CNS(=O)(=O)c2ccc(Cl)cc2)cc1	-15%	-24%
COc1ccc(CNC(=O)CCS(=O)(=O)c2cccc3nonc23)cc1	-8%	-18%
CC(C)CCNC(=O)COc1ccc2c(c1)C(=O)CC(C)(C)O2	-12%	-12%
CCCOc1ccc(S(=O)(=O)Nc2ccccn2)c2ccccc12	-22%	-23%
COc1ccc(N(CC(=O)NC2CCCCC2)S(=O)(=O)c2c(C)[nH]c(=O)[nH]c2=O)cc1	-10%	0%
Cn1c(SCC(=O)Nc2ccccc2-c2ccccc2)nnc1-c1ccco1	-14%	-16%
CCn1cc(CN2CCC(C(=O)Nc3ccc(Oc4ccccc4F)cc3)CC2)c(C)n1	-23%	-30%
Cc1cc(C)c2nc(NC(=O)C3CC(=O)N(Cc4ccco4)C3)sc2c1 (configuration not stated)	-23%	-12%
COc1ccccc1C(=O)NC(=S)NNC(=O)c1sc2ccccc2c1Cl	2%	-9%
O=C(CC1C(=O)NCCN1C(=O)c1ccc(Cl)cc1)Nc1ccc(F)cc1 (configuration not stated)	-14%	i
Brc1ccc(C2Nc3cccc4cccc(c34)N2)o1	17%	-9%
S=C(Nc1ccccc1Cl)N(Cc1ccccc1)Cc1ccccn1	-6%	-21%
Cc1nn(CC(=O)Nc2ccc3c(c2)CCC3)c(C)c1[N+](=O)[O-]	-10%	-14%
CN(c1ccccc1)c1ccc(/C=C(/CCC(=O)O)c2nc3ccccc3s2)cc1[N+](=O)[O-]	4%	i
CCC1Oc2ccccc2N(CC(=O)NCc2cc(OC)ccc2OC)C1=O (configuration not stated)	-8%	-4%
COc1cccc(OC)c1C(=O)NCc1ccco1	-7%	i
COc1cccc([C@@H]2CC=C(C(=O)O)CN2S(=O)(=O)c2ccc(C)cc2)c1	-3%	i
CC1C(=O)CC(c2ccccc2)NC1c1ccccc1 (configuration not stated)	-16%	-23%
CCS(=O)(=O)N1CCc2cc(C(=O)N3CCN(c4ccc(OC)cc4)CC3)ccc21	-19%	-20%
O=C(Cc1cccs1)NCc1cccc(F)c1	-5%	i
CCCN(CCC)CCc1c[nH]c2ccc(C(N)=O)cc12	-6%[60.7 µM]	-15%[60.7 µM]
NC(=O)COC(=O)c1ccc(Cl)c(S(=O)(=O)N(Cc2ccccc2)c2ccc(Cl)cc2)c1	-11%	-2%
NC(=O)c1ccc(N2CCN(c3ccc(O)cc3)CC2)c([N+](=O)[O-])c1	-20%	?
CC(C)(C)n1nnnc1C(c1cccc(C#N)c1)N1CCN2CCCC2C1 (configuration not stated)	-8%	-17%
CCOc1ncccc1C(=O)OCc1c(Cl)cccc1Cl	-6%	-9%
CCCn1c(N)c(C(=O)CSc2nc3ccccc3c(=O)n2Cc2ccccc2)c(=O)[nH]c1=O	2%	-3%
CCOC(=O)C1=C(C)C2C3C(=O)N(c4ccc(C)cc4C)C(=O)C3C1(C)C1C(=O)N(c3ccc(C)cc3C)C(=O)C21 (configuration not stated)	-9%	-9%
COc1ccc(C(=O)N/C(=C\c2cccs2)C(=O)N2CCN(C)CC2)cc1OC	-17%	i
CCC(CC)C(=O)Nc1nnc(S(=O)(=O)N(CC)c2ccc(OC)cc2)s1	-15%	-27%
Fc1ccccc1/C=C1\CCCC2=C1NC(=S)NC2c1ccccc1F (configuration not stated)	-14%	-25%
COc1cc(C2NC(=O)NC(c3ccccc3)=C2C(C)=O)c(Cl)cc1OCC(=O)O (configuration not stated)	-1%	-13%
Fc1cccc(/C=N/Nc2ccccn2)c1	-8%	-19%
CCc1nc2c(OCCC3CCCCC3)cccn2c1N(C)C(=O)c1ccc(C)cc1	-9%	-16%

Screening results as filed in PubChem.
